Polio RdRp inh: poliovirus RNA polymerase inhibition. 150,000 compounds, 0.66% hits. poliovirus polymerase elongation, fluorescence polarization; active compounds read low. AID 588519. % elongation, % (compound at 16.7 µg/mL); in the data active means % elongation below about 90%; further: some results filed as inactive read as strong as hits
Target sequence (P03300 1749-2209 limits assumed): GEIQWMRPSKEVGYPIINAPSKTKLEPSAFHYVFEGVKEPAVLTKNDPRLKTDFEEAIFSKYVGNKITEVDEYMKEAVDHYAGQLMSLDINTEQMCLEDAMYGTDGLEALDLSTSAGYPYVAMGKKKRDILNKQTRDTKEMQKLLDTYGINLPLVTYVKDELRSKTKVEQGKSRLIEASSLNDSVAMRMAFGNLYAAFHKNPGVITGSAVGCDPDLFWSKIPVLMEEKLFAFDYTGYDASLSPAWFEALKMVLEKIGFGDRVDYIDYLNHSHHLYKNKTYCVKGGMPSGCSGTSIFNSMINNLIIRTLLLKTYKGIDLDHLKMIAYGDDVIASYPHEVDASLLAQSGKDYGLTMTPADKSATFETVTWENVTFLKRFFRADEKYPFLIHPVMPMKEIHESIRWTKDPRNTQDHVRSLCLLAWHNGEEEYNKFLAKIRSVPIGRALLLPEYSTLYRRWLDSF
MenB inh: Mtb MenB enzyme inhibition; MenB enzyme assay, absorbance read-out; some hits fall short of the stated cut; inhibition, %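 (about 12 µg/mL by stock and volumes)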; 100,000 compounds, 0.43% hits;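 active means mean of two replicates above 30%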;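 further: 0% = no compound and 100% = wells with inactive enzyme; the first replicate is given; strong numbers were not always called active; inactives centre near -10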
Target sequence (P9WNP5 whole entry, looked up): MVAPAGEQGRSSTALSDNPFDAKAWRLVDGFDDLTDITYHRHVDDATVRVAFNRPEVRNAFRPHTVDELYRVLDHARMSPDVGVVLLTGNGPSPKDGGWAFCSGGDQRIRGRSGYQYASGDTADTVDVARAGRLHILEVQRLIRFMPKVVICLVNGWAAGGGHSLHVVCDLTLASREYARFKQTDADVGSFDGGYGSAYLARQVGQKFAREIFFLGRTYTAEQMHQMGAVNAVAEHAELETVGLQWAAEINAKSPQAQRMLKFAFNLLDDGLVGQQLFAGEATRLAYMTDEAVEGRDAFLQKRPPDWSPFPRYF
MbtI inh: inhibitors of Mycobacterium tuberculosis siderophore enzyme MbtI; AID 493033; 100,000 compounds, 0.89% hits; inhibition, %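 (about 17 µg/mL by stock and volumes)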; purified MbtI enzyme, fluorescence intensity read-out;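 active means above 50% in both replicates, above 80% if mildly self-fluorescent; inactive means the rest, strongly fluorescent compounds included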;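 further: 0% = mean of negative and 100% = mean of positive controls; one replicate is shown; some compounds called inactive have numbers as strong as hits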
Polio RdRp inh intensity: recorded beside Polio RdRp inh, whose call it bears; % elongation; measured here: total intensity read-out; formula for this scale not given here;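 total fluorescence in place of polarization; lower means less elongation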
The depositor's hits bear a star; . = no result given; & = joins results of further samples. No enrichment for hits; any-hit rate near 1.7%.

1) O=C(COC(=O)c1cccnc1Cl)Nc1cccc(Br)c1
2) O=C(COc1ccc2ccccc2c1)NC1CCC(O)CC1 (configuration not stated)
3) CC(C)n1cnnc1SCC(=O)NC(=O)c1cccn1C
4) COc1ccccc1OCC(=O)Nc1nc(-c2ccc(S(=O)(=O)N3CCCC3)cc2)cs1
5) CCCCNC(=S)NN1C(=O)NC(C)(c2cccc(OC)c2)C1=O (configuration not stated)
6) O=C(O)CCc1nc(-c2ccccc2)c(-c2ccccc2)o1
7) CC(c1ccccc1)n1c(Cn2ncc3ccccc3c2=O)n[nH]c1=S (configuration not stated)
8) Cn1c(=O)c2c(ncn2C)n(C)c1=O
entry no.	1	2	3	4	5	6	7	8
Polio RdRp inh	103	.	100	93	102	99&101	103	100
Polio RdRp inh intensity	104	.	107	98	95	100&104	103	101
MenB inh	.	-31	7	-10	-21	-6&-5	-18	4
MbtI inh	-9	-8	-1	12	-6	-42&-32	22	-29

9) Cc1ccc(C(=O)OCC(=O)N2C(C)CCCC2C)s1 (configuration not stated)
10) Cc1ccc2nc(-c3cccc(NC(=O)COc4ccccc4)c3C)oc2c1
11) CN1C(=O)/C(=C\c2ccc(C(=O)N3CCOCC3)cc2)SC1=S
12) COc1ccc(N2CCN(CCNC(=O)c3nnc(Cc4ccccc4Cl)o3)CC2)cc1
13) CCCC(O)C(C)(C)CO (configuration not stated)
14) CNc1ccccc1C(=O)OCc1ccc(C(=O)OC)cc1
15) CCOc1ccc(/C=C2\SC(=O)N(CCNC(=O)c3c(CC)noc3C)C2=O)cc1OC
16) O=c1/c(=C/c2ccco2)sc2nc3ccccc3n12
entry no.	9	10	11	12	13	14	15	16
Polio RdRp inh	108	99	.	100	101	102	103	102
Polio RdRp inh intensity	104	101	.	103	105	100	100	103
MenB inh	-11	-31	6	-10	17	-3	-15	.
MbtI inh	10	-302	3	-8	-5	-298	8	-8

17) O/N=C1\CCCc2nn(-c3ccc(Cl)c(Cl)c3)nc21
18) COc1ccc(CSc2nnc(CSc3cccs3)n2C)cc1
19) CCC(Sc1ncc(S(=O)(=O)c2ccc(C)c(C)c2)c(=O)[nH]1)C(=O)Nc1ccc(OC)cc1 (configuration not stated)
20) CCN(CC)C(=O)c1cccc(Cl)c1
21) COc1ccc(S(N)(=O)=O)cc1C(=O)N1CCCC1
22) CSCCC(C(=O)O)N1C(=O)c2ccccc2C1=O (configuration not stated)
23) Cc1nn(-c2ccccc2)c(C)c1/C=N/N=C1\C(=O)Nc2ccccc21
24) Clc1ccc(CN2CCNCC2)cc1
entry no.	17	18	19	20	21	22	23	24
Polio RdRp inh	101	98	102	105	104	104	93	102
Polio RdRp inh intensity	100	101	99	109	94	100	92	104
MenB inh	2	-16	9	1	3	14	-1	19
MbtI inh	-3	-6	6	.	2	11	0	-1

25) Cc1ccc(-c2nn(-c3ccccc3)cc2C(=O)Nc2ccccc2C)o1
26) O=C1CC(c2ccccc2)Cc2c1cnn2-c1nc2ccccc2[nH]1 (configuration not stated)
27) COc1cccc(CSc2nnc(Cc3cccs3)n2C2CCCCC2)c1
28) S=c1n(CN2CCCC2)nc2sc3ccccc3n12
29) CN1C(=O)Cc2cc(S(=O)(=O)CCC(=O)N3CCN(Cc4ccc5c(c4)OCO5)CC3)ccc21
30) C1CCC2(CC1)C1=C(CCCC1)Nc1nnnn12
31) O=C(COC(=O)c1ccccc1)Nc1ncc(Cl)cc1Cl
32) O=C(O)c1cccc(NC(=O)c2nccnc2C(=O)O)c1
entry no.	25	26	27	28	29	30	31	32
Polio RdRp inh	104	99	101	100	104	100	101	101
Polio RdRp inh intensity	104	100	107	94	98	103	103	101
MenB inh	-10	-4	-46	-46	-37	32*	.	-8
MbtI inh	60	4	-4	0	-11	1	1	-83

33) CN(Cc1ccccc1)C(=O)COC(=O)c1sc2ccccc2c1Cl
34) C=CCCOc1ccccc1C(N)=O
35) Cc1ccc(C(CNC(=O)COc2ccccc2)N2CCN(C)CC2)cc1 (configuration not stated)
36) Cc1cccc(NC(=O)Cn2c(=O)oc3ccccc32)c1
37) O=C(Cn1c(=O)oc2ccccc21)N1CCCCC1
38) COc1ccccc1C(=O)NCC(C)(C)CN=C1NS(=O)(=O)c2ccccc21
39) O=C(COC(=O)c1ccccc1)NCc1ccco1
40) CC(OC(=O)c1ccccc1)C(=O)NCc1ccc2c(c1)OCO2 (configuration not stated)
entry no.	33	34	35	36	37	38	39	40
Polio RdRp inh	102	101	106	103	101	101	100	105
Polio RdRp inh intensity	97	104	109	105	102	104	105	102
MenB inh	.	-3	-24	-5	8	0	.	-20
MbtI inh	-1	-5	-4	-2	-5	-22	-9	-8

41) COc1ccc(-n2c(Cn3ncc4ccccc4c3=O)n[nH]c2=S)cc1
42) CCN(CC)S(=O)(=O)c1ccc2nc(NC(=O)c3cc(OC)c(OC)c(OC)c3)sc2c1
43) CC(C)(C)OC(=O)/C(C#N)=C/c1cccs1
44) CC(C)(C)C1CCc2c(sc3nc(-c4cccs4)oc(=O)c23)C1 (configuration not stated)
45) CCOC(=O)c1cnn(CCOC(=O)c2ccco2)c1NC(=O)c1ccco1
46) CCOC(=O)N1CCC(NC(=O)c2ccc(CS(=O)(=O)c3ccc(OC)cc3)o2)CC1
47) O=C(c1ccccc1)c1ccc2nc(Cl)c3nncn3c2c1
48) CCC(C)c1c(O)[nH]c(=S)[nH]c1=O (configuration not stated)
entry no.	41	42	43	44	45	46	47	48
Polio RdRp inh	101	100	102	103	99	103	105	100
Polio RdRp inh intensity	102	102	103	98	101	102	105	100
MenB inh	-24	-9	10	-26	12	-11	-10	-1
MbtI inh	16	105	-1	-3	0	5	-7	19

6 compounds from above, ordered by formula weight, lowest first.
48) CCC(C)c1c(O)[nH]c(=S)[nH]c1=O (configuration not stated)
43) CC(C)(C)OC(=O)/C(C#N)=C/c1cccs1
40) CC(OC(=O)c1ccccc1)C(=O)NCc1ccc2c(c1)OCO2 (configuration not stated)
44) CC(C)(C)C1CCc2c(sc3nc(-c4cccs4)oc(=O)c23)C1 (configuration not stated)
45) CCOC(=O)c1cnn(CCOC(=O)c2ccco2)c1NC(=O)c1ccco1
42) CCN(CC)S(=O)(=O)c1ccc2nc(NC(=O)c3cc(OC)c(OC)c(OC)c3)sc2c1
entry no.	48	43	40	44	45	42
Polio RdRp inh	100	102	105	103	99	100
Polio RdRp inh intensity	100	103	102	98	101	102
MenB inh	-1	10	-20	-26	12	-9
MbtI inh	19	-1	-8	-3	0	105

Next entries
49) CC(C)(C)c1ccc(NNC(=O)c2ccno2)cc1
50) CC1CN(CN2C(=O)c3ccccc3C2=O)CC(C)O1 (configuration not stated)
51) CN(C1CCS(=O)(=O)C1)S(C)(=O)=O (configuration not stated)
52) Cc1ccc(NCc2nnc(SCC(=O)N3CCOCC3)o2)c(C)c1
53) CCn1c(C)[n+](CC)c2ccc(S(=O)(=O)C(F)(F)F)cc21
54) O=c1c(N2CCCC2)c(Cl)cnn1-c1ccccc1
55) COc1cc(C(=O)N(CCc2ccccc2)C2CC3CCC(C2)N3C)cc(OC)c1OC (configuration not stated)
56) O=C(NC(=S)NC1CCCCC1NC(=S)NC(=O)c1ccco1)c1ccco1 (configuration not stated)
entry no.	49	50	51	52	53	54	55	56
Polio RdRp inh	104	101	100	101	100	103	101	98
Polio RdRp inh intensity	104	103	106	102	101	98	105	97
MenB inh	-36	-2	-1	5	18	-25	17	-20
MbtI inh	-3	.	-2	-14	3	-1	-4	0

57) CCS(=O)(=O)N1CCC(NC(=O)c2cc(OC)cc(OC)c2)CC1
58) COC(=O)c1ccc(COC(=O)/C=C/c2c(C)nn(Cc3ccccc3)c2Cl)o1
59) COc1ccc(C2=NC3Oc4c(C)cccc4C=C3C(=O)N2)c(OC)c1OC (configuration not stated)
60) Nc1ncc(Cc2cccc(Cl)c2)s1
61) Cc1ccccc1-c1ncc(-c2ccc(Br)cc2)o1
62) CCNS(=O)(=O)c1cccc2c(N)cccc12
63) O=S(=O)(NC1CCc2ccccc21)c1ccc(-n2cnnn2)cc1 (configuration not stated)
64) O=C(CCS(=O)(=O)c1ccccc1)N1CCN(c2ccccc2)CC1
entry no.	57	58	59	60	61	62	63	64
Polio RdRp inh	101	97	101	102	106	99	100	107
Polio RdRp inh intensity	101	93	104	105	112	92	102	102
MenB inh	3	-26	2	-16	-85	12	12	-19
MbtI inh	5	12	4	.	-2	-8	-1	-9

Some of the entries so far, with values under each structure:
Fields: Polio RdRp inh | Polio RdRp inh intensity | MenB inh | MbtI inh
59: COc1ccc(C2=NC3Oc4c(C)cccc4C=C3C(=O)N2)c(OC)c1OC (configuration not stated)
→ 101 | 104 | 2 | 4
60: Nc1ncc(Cc2cccc(Cl)c2)s1
→ 102 | 105 | -16 | .

Following part:
65) C(=N\c1ncn[nH]1)/c1ccccc1
66) O=C(Cc1csc2nc(-c3ccccc3)cn12)N1CCc2ccccc21
67) COc1ccc(Br)c(-c2nnc(CS(=O)(=O)c3ccccc3)o2)c1
68) CCOC(=O)c1ccc2nc(CCC(=O)NC3CCC(C)CC3)c(=O)n(CC)c2c1 (configuration not stated)
69) O=C(O)c1ccc(NCc2cccnc2)cc1
70) O=C(OC1CS(=O)(=O)CC1OC(=O)c1ccccc1)c1ccccc1 (configuration not stated)
71) O=C(CSC1CCS(=O)(=O)C1)OCc1c(Cl)cccc1Cl (configuration not stated)
72) N#CC1=C(N)N(c2ccccc2)C2=C(C(=O)CCC2)C1c1ccccc1 (configuration not stated)
entry no.	65	66	67	68	69	70	71	72
Polio RdRp inh	101	104	99	107	101	104	105	103
Polio RdRp inh intensity	101	102	101	114	94	108	97	106
MenB inh	-70	-25	5	-4	-5	-14	5	-24
MbtI inh	-2	7	8	-4	2	.	8	.

73) CCn1c(CN2CCCCCC2=O)n[nH]c1=S
74) CC1(CC(=O)N=Nc2c(O)[nH]c3ccccc23)OCCO1
75) COc1c(C(=O)O)cnc2cc(Cl)ccc12
76) O=C1CCCC(Cn2cncn2)C1 (configuration not stated)
77) Cc1nn(C)c(C)c1NC(=O)/C(C#N)=C\N(C)C
78) C=CCN(c1ccc(C(=O)Nc2ccc3c(c2)OCO3)cc1)S(C)(=O)=O
79) CCOc1ccc(NC(=O)CSCCn2c(C)csc2=O)cc1
80) Cc1ccc(OC(=O)CCC(=O)N2CCN(C(=O)CCC(=O)Oc3ccc(C)cc3)CC2)cc1
entry no.	73	74	75	76	77	78	79	80
Polio RdRp inh	104	101	100	106	105	103	96	102
Polio RdRp inh intensity	105	100	102	110	105	104	99	105
MenB inh	1	-36	24	3	-16	-11	-12	12
MbtI inh	35	7	8	.	12	-2	9	7

81) CCCc1noc2c1/C(=N\O)CC(C)(C)C2
82) CN(CC(=O)Nc1ccc2[nH]c(=O)[nH]c2c1)Cc1ccccc1
83) C=CCn1c(N)cc(=O)nc1SC(C)C(=O)Nc1ccc(C)cc1 (configuration not stated)
84) C=CCSc1nnc(-c2cc(OCC(F)(F)F)nc(OCC(F)(F)F)c2)n1Cc1ccco1
85) CCOc1ccc2nc(SCC(=O)N(C)C3CCCCC3)c(C#N)cc2c1
86) CC(SCC(=O)O)c1nc2ccccc2[nH]1 (configuration not stated)
87) Cc1ccc(/C=C2/C(=O)N=C(N)N2C)s1
88) CCN(CC)S(=O)(=O)c1ccc(C(=O)Nc2cccc(C)c2)cc1
89) CCNc1ncnc2c1cnn2C
90) OC1(c2ccc(Br)cc2)CN(c2ccccc2)C2=[N+]1CCCS2 (configuration not stated)
91) CCOC(=O)C1=C(N)Oc2c(c(=O)oc3ccccc23)C12C(=O)N(CC(=O)OC)c1ccccc12 (configuration not stated)
entry no.	81	82	83	84	85	86	87	88	89	90	91
Polio RdRp inh	101	102	101	105	99	108	103	102	101	100	100
Polio RdRp inh intensity	107	94	102	105	107	105	101	99	102	98	104
MenB inh	2	-15	2	-21	-21	-1	-80	.	-1	.	-1
MbtI inh	.	15	-12	-7	-10	4	4	-12	-11	-7	-10
